# KSHV LANA nucl: LANA-nucleosome interaction inhibition | 51,000 compounds, 0.3% hits | FITC-LANA1-23 / chicken nucleosome fluorescence polarization; hits give low values | z-score (test concentration not listed);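 active = both repeat wells score below -2 in polarization z-score versus plate sample wells, excluding overly bright wells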;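 note: 100 nL library stock added to about 30 µL; numbers are from one replicate; some results filed as inactive read as strong as hits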
#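 System – purified chicken nucleosomes with FITC-labelled LANA N-terminal peptide (1-23) · Amount – 240 nM purified chicken nucleosomes (480 nM peptide binding sites), final · Also added – 50 nM FITC-LANA1-23 probe · Medium – TEN-BT buffer, pH 7.5 · Incubation – compound with peptide–nucleosome mix 10–45 min at room temperature · Detection – fluorescence polarization, ex 480 nm, em 535 nm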
# BasE inh: BasE siderophore biosynthesis inhibition. purified BasE, fluorescence polarization binding displacement. AID 485350. 84,000 compounds, 0.1% hits. inhibition, % (no concentration beside the values);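 active = both replicates above 25% with normal brightness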;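 note: 0% = negative plate control signal and 100% = positive plate control signal; stock transfer was 100 nL into about 30 µL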
# An asterisk follows results filed as active; · = no result given.
canonical_smiles | KSHV LANA nucl | BasE inh
Cn1nc(C(F)(F)F)c(C(=O)Nc2ccc(F)cc2F)c1Cl | -0.38 | ·
O=C(C1CCN(c2nccc(C(F)(F)F)n2)CC1)N1C=CC(C(F)(F)F)=NCC1 | · | 1.5
O=S(=O)(NCc1ccccc1)c1cccc(C(F)(F)F)c1 | · | 0.0
Cc1nc2ccccc2n1-c1ccccc1 | 0.4 | -3.9
CCS(=O)(=O)Nc1c(NC)c2ccccc2oc1=O | -0.087 | 1.8
Cc1oc2ncnc(NC3CCCC3)c2c1C(=O)O | 0.95 | 0.9
COc1cc2c(C(=O)NCc3ccc4c(c3)OCO4)cn(CC(C)C)c(=O)c2cc1OC | -0.3 | 0.3
COCCn1c(SCC(=O)c2ccc(CNC(C)=O)o2)nc2ccccc2c1=O | · | -0.7
CC(=O)Nc1ccc(SCc2ncc(-c3ccccc3)o2)cc1 | · | -3.1
COc1ccc(OC)c(NC(=S)NCc2ccccc2)c1 | · | 1.9
Cc1c2cnc3nn(-c4ccccc4)c(=O)c-3cc2c(C)n1C | 0.55 | 0.3
CC(C)n1c(Nc2ccccc2)nc2ccccc21 | 1.4 | -0.2
O=C1NC(c2ccccc2)(c2ccccc2)C(=O)N1Cc1ncc(-c2ccccc2)o1 | · | 1.7
COC(=O)CC1C(=O)NCCN1C(=O)c1ccc(-c2ccccc2)cc1 (stereo not given) | · | -2.2
O=C(Nc1ccc(Cl)cc1)c1ccccc1 | 1.8 | 0.0
CCC(CO)Nc1ncnc2sc(C)c(C)c12 (stereo not given) | · | 3.6
Cn1c(-c2ccccc2)c(C(=O)CNCc2ccco2)c2ccccc21 | · | -13
c1ccc(-c2nc3ccccc3nc2-c2ccccn2)nc1 | 0.73 | 2.4
CC(=C1C(=O)c2ccccc2C1=O)N1CCN(CCO)CC1 | 1.7 | 6.3
Cc1cccc2sc(NNC(=O)c3ccc(S(=O)(=O)N4CCCC4)cc3)nc12 | -0.5 | -0.7
NNC(=O)c1cccnc1N | -0.72 | 1.9
C[C@H](NC(=O)Cc1cccc2ccccc12)C(=O)NC1CC1 | · | -0.1
CC1CCCCN1c1nnc(NC(=O)c2cc(-c3ccc(Br)cc3)on2)s1 (stereo not given) | -0.37 | -2.1
COc1ccc(CCN=Cc2ccccc2O)cc1OC | · | 0.3
O=C(Nc1ccc(Cl)c(Cl)c1)Nc1ccnn1C1CCCCC1 | · | -15
CS(=O)(=O)n1nc(-c2ccco2)nc1SCc1ccccc1 | 0.92 | -0.9
CN(C)c1ccc(C=C2C(=O)OC(C)(C(C)(C)C)OC2=O)cc1 (stereo not given) | -3.1 | 4.2
Cc1ccc(C(=O)N/C(N)=N/c2nc3ccccc3s2)cc1 | · | 2.6
CCc1nnc(SCC(=O)O)o1 | -1.7 | 2.4
CC(C)OC(=O)CC12CN(C)CC(CC(=O)OC(C)C)(CN(C)C1)C2=O | 0.65 | -1.0

# Full records as entered above:
# O=C(C1CCN(c2nccc(C(F)(F)F)n2)CC1)N1C=CC(C(F)(F)F)=NCC1 in the list: KSHV LANA nucl = ·; BasE inh = 1.5
# c1ccc(-c2nc3ccccc3nc2-c2ccccn2)nc1 in the list: KSHV LANA nucl = 0.73; BasE inh = 2.4
# O=C1NC(c2ccccc2)(c2ccccc2)C(=O)N1Cc1ncc(-c2ccccc2)o1 in the list: KSHV LANA nucl = ·; BasE inh = 1.7

# Back to the main list with the 2 entries that preceded the break.
canonical_smiles | KSHV LANA nucl | BasE inh
CCc1nnc(SCC(=O)O)o1 | -1.7 | 2.4
CC(C)OC(=O)CC12CN(C)CC(CC(=O)OC(C)C)(CN(C)C1)C2=O | 0.65 | -1.0
CCOC(=O)c1csc(-c2sccc2Br)n1 | -0.018 | 0.5
CCC(Cc1ccccc1)NC(C)=O (stereo not given) | 0.36 | 0.2
Cc1ccccc1NC(=O)CN(C)S(=O)(=O)c1cccs1 | 0.84 | 0.0
O=C(c1cnn(-c2ccccc2)c1-n1cccc1)N1CCc2ccccc2C1 | -1.1 | -0.7
Cc1cccc(NC(=O)CO/N=C/c2cccs2)c1 | · | 2.1
c1ccc(Oc2ccc(N=NN3CCCCC3)cc2)cc1 | 0.18 | 2.1
CCOC(=O)C1(CCCCCCOc2ccc(Cl)cc2)CO1 (stereo not given) | -0.01 | ·
Cc1cccn2c(=O)c(/C=N/NC(N)=S)c(N3CCCC3)nc12 | · | 3.9
O=C(c1ccccc1)N(C(=O)c1ccccc1)c1ccccn1 | 0.77 | -0.3
O=C(Nc1ccc2oc(-c3c(F)c(F)c(F)c(F)c3F)nc2c1)c1cccs1 | -0.99 | 0.0
O=C(C1CCCO1)N1CCc2ccccc21 (stereo not given) | -0.042 | -1.5
N#Cc1ccccc1OCC(=O)NC12CC3CC(CC(C3)C1)C2 | · | 1.0
CCOC(=O)c1sc(N)c(C#N)c1CSc1nc(-c2ccccc2)cs1 | · | -11
Cc1ccc(-n2c(-c3ccco3)nc3c(cnn3-c3ccccc3C)c2=O)cc1F | -0.94 | -0.2
COc1cccc(CNC(=O)c2ccc(S(=O)(=O)N3CCCC3)cc2)c1 | · | -3.7
CCOC(=O)c1c(Cl)[nH]c2ccccc2c1=O | -0.4 | 0.3
CC(Nc1cccc(C(=O)NC2CC2)c1)C(=O)N1CCNC1=O (stereo not given) | · | -1.2
FC(F)(F)c1nc(NC2=NCCCCC2)n[nH]1 | · | 3.6
CCN1/C(=C/c2sc3ccccc3[n+]2CCO)Sc2ccccc21 | · | -17
Cc1nc2nc(N3C(=O)c4ccc(C(=O)O)cc4C3=O)[nH]n2c(=O)c1Cc1ccccc1 | -0.028 | 1.1
O=c1ccc(S(=O)(=O)N2CCCC2)cn1Cc1nc2ccccc2s1 | · | -0.5
CCOC(=O)CNc1nn2c(=O)c3ccc(C(=O)OC)cc3nc2s1 | 0.33 | -0.1
O=C1OCc2ccccc21 | 1.4 | -9.3
CCOc1ccc(N=CNc2ccc(OCC)cc2)cc1 | · | 0.1
CN(C)/C=N/S(=O)(=O)c1cc(C(F)(F)F)cc(C(F)(F)F)c1 | · | 2.6
COC(=O)c1ccccc1NC(=O)CN(c1ccccc1)S(C)(=O)=O | -0.69 | 1.7
CCN1C(=O)c2ccccc2S(=O)c2ccc(C(=O)NCCN3CCN(Cc4ccccc4)CC3)cc21 (stereo not given) | -1.3 | -3.9
O=C(CN1C(=O)c2ccccc2S1(=O)=O)c1ccc2c(c1)OCCO2 | 0.03 | 0.8
Cc1nc(CSc2nnc(Cc3cccc4ccccc34)n2N)cs1 | · | 0.8
CCC(C)(C)NC(=O)c1ccc2c(=O)n3c(nc2c1)CCC3 | · | -0.8

# Additional entries.
canonical_smiles | KSHV LANA nucl | BasE inh
Cc1ccc2c(c1Br)C(=C(C#N)C#N)C(=O)N2 | 0.023 | 0.1
O=C(COC(=O)C1CC2CCCC(C1)C2=O)NC1CCCc2ccccc21 (stereo not given) | · | -15
CN=C(Nc1ccc(Cl)cc1)c1cccnc1 | -0.92 | ·
CCOC(=O)CSc1nnc(CNc2cccc(C(F)(F)F)c2)n1CC | -0.72 | 0.7
Cc1nn2c(Br)c(C34CC5CC(CC(C5)C3)C4)nc2s1 | · | 2.3
CC(C)Cn1cc(NC(=O)N2CCCCC2c2cccnc2)c2ccccc2c1=O (stereo not given) | · | 1.0
C=CCOc1cc(OCC=C)cc(C(=O)O)c1 | -0.11 | ·
OCCSc1nc(-c2cccs2)nc2ccccc12 | · | -2.1
C=CCn1c(C(C)Oc2ccc(Cl)cc2Cl)n[nH]c1=S (stereo not given) | · | 0.8
Nc1nc2nc(-c3ccccc3)cc(-c3ccccc3)n2n1 | -0.041 | 5.9
CC(C)=NNC(=O)c1c(O)c2ccccc2[nH]c1=O | -0.082 | -1.6
Cc1cc(=O)n(CC(=O)N2CCc3ccccc32)c2c1c(C)nn2-c1cccc(F)c1 | -0.28 | 2.8
CCc1ccccc1N(C)C(=O)Cc1nc(-c2ccc(OC)cc2)no1 | 0.53 | 0.1
Cc1ccc2c(=O)cc(-c3ccccc3C(=O)O)oc2c1 | -0.24 | -1.2
CC(Sc1nnc(-c2ccco2)n1-c1ccccc1)C(=O)c1ccc(Br)cc1 (stereo not given) | · | -0.1
O=C(Nc1cccc2ccccc12)C12CC3CC(CC(C3)C1)C2 | · | 2.5
O=C(c1ccccc1)N1CC(=O)N2CCc3ccccc3C2C1 (stereo not given) | -0.12 | 0.6
CN1/C(=C\C(=O)COC(=O)C2CC(=O)N(Cc3ccccc3)C2)C(C)(C)c2ccccc21 (stereo not given) | · | 0.0
C=CCn1c(Sc2ncc(C#N)c(N)n2)nnc1-c1cccs1 | 0.15 | 2.5
Cc1cc(OCC(=O)NCCO)cc(C)c1Cl | -0.054 | -4.0
COc1cc(Nc2nc3ccccc3c3nnc(C)n23)cc(OC)c1OC | · | 0.6
N#Cc1ccc(NC(=O)CCCSc2nc3ccccc3s2)cc1 | · | 0.1
CCCNC(=O)c1sc2nc(-c3ccccc3)cn2c1C | 0.29 | -0.1
c1ccc2c(c1)nc1n2CCN1CCNC1CCCCC1 | 1.3 | -3.2
Cc1nn(-c2ccccc2)c(Cl)c1C(=O)Nc1sc2c(c1C(N)=O)CCCC2 | · | -10
COC(=O)c1ccc(CSc2nnc(-c3ccccc3)o2)o1 | 0.43 | -2.2
COc1ccccc1/C=C/C(=O)Nc1ccccn1 | 1.1 | 1.9
O=C(NCCc1ccco1)c1ncoc1-c1cccs1 | 0.26 | -2.5
CCc1nc2cccnc2n1-c1ccc(CC(=O)N2CCCCCC2)cc1 | -0.26 | -0.2
O=C1CSCC(=O)N1c1ccc(OC(F)(F)F)cc1 | -0.79 | 2.8

# Following part.
canonical_smiles | KSHV LANA nucl | BasE inh
COc1ccc(N2CCN(c3ccc(NS(=O)(=O)c4ccccc4)nn3)CC2)cc1 | · | 1.1
COc1cc(C(CC(=O)O)N2Cc3ccccc3C2=O)cc(OC)c1OC (stereo not given) | 0.79 | -0.4
COC(=O)c1sc(N)c(C(=O)OC)c1CN1C(=O)c2ccccc2S1(=O)=O | · | 1.0
Cc1ccc(-c2csc(NC3OC(=O)c4c#cccc43)n2)cc1 (stereo not given) | 2.6 | -2.8
COCCn1c(N)c(C(=O)C(C)(C)C)sc1=S | · | 3.0
COc1ccccc1/C=C/C(=O)O | · | 0.0
CC1=NN(c2ccccc2)C(=O)C1=C(C)C | · | -0.9
CC(C)CC(=O)Nc1ccccc1C(N)=O | 0.24 | -0.4
Cc1ccc(C)c(C(=O)/C=C/C(=O)O)c1 | 0.15 | ·
CC1=C/C(=N/Nc2nc3ccccc3[nH]2)CC(C)(C)C1 | · | 0.8
CC12CN3CC(C)(CN(C1)C31C(=O)Nc3ccccc31)C2O (stereo not given) | 0.47 | -0.3
CCN1C(=O)/C(=C2\SC(=Nc3ccc(Cl)cc3)N(C)C2=O)c2ccccc21 | 0.24 | 1.2
CC1CCCCC1NC(=O)CO/N=C/c1ccc2c(c1)OCO2 (stereo not given) | · | -0.6
O=C(Cc1n[nH]c(=O)c2ccccc12)Nc1cc(C(F)(F)F)ccc1N1CCCC1 | · | 3.5
CC(=O)Oc1ccccc1C(=O)Oc1ccccc1C(=O)O | -0.5 | 0.0
O=C(Nc1ccccc1)C1Cc2cc(Cl)ccc2O1 (stereo not given) | · | -0.6
COc1ccc(CNC(=O)CN2CCN(S(=O)(=O)c3ccccc3)CC2)cc1 | · | -0.6
COc1cc(NC(C)C(=O)N2CCCCC2)cc(OC)c1 (stereo not given) | · | 2.5
Cc1noc(C)c1COC(=O)C(Cc1ccccc1)NC(=O)c1cccs1 (stereo not given) | · | 1.9
c1ccc(COc2ccc(Oc3ncccn3)cc2)cc1 | · | 3.6
COC(=O)C1CCN(c2ncnc3scc(-c4ccccc4)c23)CC1 | · | 2.5
CCCN1CCC(N(C)CC(=O)OCC)CC1 | -0.7 | 0.7
COc1ccc(OCCCC(=O)n2c(C(C)O)nc3ccccc32)cc1 (stereo not given) | · | 0.5
Cc1cccc(-c2nn(-c3ccc(F)cc3)cc2C(=O)N2CCN(CCO)CC2)c1 | · | 0.7
COc1cc2c(cc1OC)CN(S(=O)(=O)c1ccc(-n3cnnn3)cc1)CC2 | 0.33 | 1.0
CCCN(CCC)S(=O)(=O)c1cccc(C(=O)Nc2ccccc2C(=O)NC2CC2)c1 | · | -0.7
CC1(C)CC(CC#N)(Cc2ccccc2)CCO1 (stereo not given) | -0.35 | -0.3
Cc1ccccc1OCC(=O)NCCN1CCCC1 | -0.04 | 1.8
Cc1cccc(NC(=O)c2ccccn2)c1 | · | -0.9
CC(=O)Nc1ccc(-c2nc(-c3ccccc3)no2)cc1 | · | -0.7

# (continued)
canonical_smiles | KSHV LANA nucl | BasE inh
CC1(C)Cc2c(C#N)c(SCCc3ccccc3)nc(N3CCOCC3)c2CO1 | -0.031 | -1.5
Cc1ccc(S(=O)(=O)CCc2nnc(N)s2)cc1 | 1.1 | 0.4
Cn1ccc2cc(N)ccc21 | 0.29 | 3.1
C[C@@]1(O)CCOC(=O)C1 | 0.047 | -1.3
COC(=O)c1sccc1S(=O)(=O)NCc1ccc(S(N)(=O)=O)cc1 | 0.41 | -1.6
S=c1nc2ccccc2c2nc(-c3cccnc3)[nH]n12 | -0.035 | 4.7
Cc1cc(C)n2c(SCC(=O)N(C)C3CCCCC3)nnc2n1 | -0.35 | -0.2
COc1ccc(NC(=O)C2CCCCC2)cc1 | -1.1 | 0.1

# 3 compounds out of the list above, sorted by their value in KSHV LANA nucl, smallest number first.
SMILES | KSHV LANA nucl
Cc1cc(C)n2c(SCC(=O)N(C)C3CCCCC3)nnc2n1 | -0.35
CC1(C)Cc2c(C#N)c(SCCc3ccccc3)nc(N3CCOCC3)c2CO1 | -0.031
C[C@@]1(O)CCOC(=O)C1 | 0.047

# Assay outcomes from PubChem.

# A portion of the library, so the mix of outcomes need not match the whole.
